# Source: PubChem
# D2 ag – activates the human D2 dopamine receptor | DiscoveRx PathHunter D2 beta-arrestin, luminescence, 90 min; 100% = 57 uM dopamine signal | activation, % (test concentration not listed) | 360,000 compounds, 0.084% hits | AID 624465; in the data active = activation above about 40%; inconclusive = about 15% to 40%; inactive = below about 15%; note: compound concentration not given in the record; the text of the record calls up to 30% inactive
# Target sequence (P14416 whole entry, looked up): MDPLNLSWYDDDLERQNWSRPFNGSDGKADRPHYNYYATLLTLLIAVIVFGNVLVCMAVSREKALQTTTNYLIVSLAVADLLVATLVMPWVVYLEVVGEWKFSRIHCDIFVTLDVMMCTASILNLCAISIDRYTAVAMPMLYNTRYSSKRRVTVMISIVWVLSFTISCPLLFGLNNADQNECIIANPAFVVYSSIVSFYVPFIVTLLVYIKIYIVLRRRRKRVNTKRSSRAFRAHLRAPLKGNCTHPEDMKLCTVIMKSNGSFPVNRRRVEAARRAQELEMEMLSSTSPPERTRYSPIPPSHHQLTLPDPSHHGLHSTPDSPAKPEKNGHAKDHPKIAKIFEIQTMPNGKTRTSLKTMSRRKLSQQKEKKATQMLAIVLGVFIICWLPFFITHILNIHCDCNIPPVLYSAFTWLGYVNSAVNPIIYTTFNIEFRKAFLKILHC
#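 DiscoveRx PathHunter D2 beta-arrestin cells (2,100/well) attached overnight, then compound-stimulated 90 min at 37 C in HBSS/10 mM HEPES/0.1% Tween-20 buffer; beta-galactosidase complementation read by luminescence after 1 h at ambient temperature. Dopamine 57 uM final (EC100) as control.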
# Menin-MLL FL inh – inhibitors of human menin-MLL interaction, wild-type MLL peptide | FP activity change, % at 61.4 µM | 290,000 tested, under 10 active | AID 1766 | Fluorescence polarization, fluorescein-MLL peptide displacement from menin; inconclusive = falling polarisation curve, or a change in total fluorescence; inactive = total fluorescence flat and polarisation flat or rising; no compound was filed as active; the % refers to the polarisation; negative = inhibition;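 note: % of control where 0% means no effect; inhibitors lower the polarisation; unlabelled MLL peptide was the positive control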
# PINK1 expr mod – modulators of PINK1 expression; PINK1 immunofluorescence, high-content cytometry, 24 h; Potency, µM (doses to about 76.6 µM), without a hit: top-dose activation (PINK1 increase), hits mostly activators; 410,000 compounds, 0.2% hits; active = well fitted activation curve with a large enough effect; inconclusive = small, poorly fitted or top-dose-only effect; inactive = flat fitted curve, though single readings scatter; cell line not stated here;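 note: potency is the fitted concentration of half-maximal effect; % of control where 0% means no effect; nearly all actives have a fitted effect of over 65% in size; a mitochondrial uncoupler was the plate control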
#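 Stable cell line, 250 cells/well, 12 h attachment; compounds pinned at 5 concentrations, 24 h; CCCP control. Fixed with nuclear dye, primary antibodies 12 h at 10 degrees C, secondary plus cell stain; laser-scanning cytometer read.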
# gsp agonist – gsp mutant agonism. gsp mutant cells, cAMP HTRF, 30 min; control for the full effect not named in the record. Potency, µM (doses to about 76.9 µM), for inactives: at the highest dose activation (cAMP increase), actives largely listed as activators. 340,000 compounds, 0.13% hits. AID 624287; active = well fitted activation curve with a large enough effect; inconclusive = small, poorly fitted or top-dose-only effect, or another doubt; inactive = no such curve, though single readings can be large or run the other way; cell line not stated here;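 note: phosphodiesterase inhibitor Ro 20-1724 added with compounds to block cAMP breakdown; potency is the fitted concentration of half-maximal effect; nearly all actives have a fitted effect of over 60% in size; about a fifth of the inactives were tested at one dose only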
#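 Cells in DMEM/10% FBS with G418 were pretreated with compounds in DMSO plus […] (300 uM stock) for 30 min at 37C. cAMP was measured by HTRF (cAMP-d2 plus anti-cAMP antibody-K) after 30 min at room temperature.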
# gsp antag – gsp mutant antagonism. gsp-mutant cells, cAMP HTRF, 30 min; control for the full effect not named in the record. Potency, µM (top dose mostly 76.9 µM), inactives show at the highest dose activity change, negative = inhibition, hits mostly inhibitors. 340,000 compounds, 0.4% hits. AID 624288; active = falling curve of any shape with a large fitted effect; inconclusive = falling curve, mostly with a smaller effect; inactive = flat or rising curve; cell line not stated here;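 note: intracellular cAMP measured with PDE inhibitor Ro 20-1724 present during compound exposure; potency is the fitted concentration of half-maximal effect; % is set by controls: 0 for no effect and ±100 for the full control effect; nearly all actives have a fitted effect of over 65% in size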
#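 Cells, 2000/well, grown 16–24 h in DMEM 10% FBS with 0.5 mg/ml G418, then compounds plus […] (300 uM addition stock), 30 min at 37C. cAMP read by HTRF (cAMP-d2 and anti-cAMP antibody-K in lysis buffer) after 30 min RT.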
# Sfp inh – Sfp phosphopantetheinyl transferase inhibition; Potency, µM, inactives show max response, negative = inhibition, usual class: inhibitors; 310,000 compounds, 3.5% hits; AID 1490; Q9F4F7; Biochemical Sfp PPTase activity, qHTS; active = well fitted inhibition curve with a large enough effect; inconclusive = small, poorly fitted or top-dose-only effect, or another doubt; inactive = no such curve, though single readings can be large or run the other way;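 note: the enzyme is Sfp with the accession as filed and its product quenches rhodamine fluorescence; potency is the fitted concentration of half-maximal effect; 0% = enzyme reaction without inhibitor and -100% = no enzyme wells; top concentration of the series not given in the record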
#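 Fluorescence-quenching assay: 15 nM Sfp-PPTase preincubated 15 min at room temperature with compound, then 5 uM rhodamine-CoA and 12.5 uM BHQ-2-labelled YbbR peptide added. Fluorescence (ex 525/em 598 nm) read at start and after 30 min; difference gives rate.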
# ClpP mod – qHTS Assay for Activators of ClpP. ATP-dependent Clp protease proteolytic subunit (Bacillus subtilis (strain 168)), P80244. Potency, µM (titrated, usually from 57.5 µM), for the others: at the highest dose activity change, negative = active. AID 651965, 2013. purified B. subtilis ClpP, FRET peptide cleavage, 20 min. 340,000 compounds, 1.9% hits; active = well fitted falling curve with a large enough effect; inconclusive = small, poorly fitted or top-dose-only effect; inactive = no such curve, though single readings can be large or run the other way; note: potency is the fitted concentration of half-maximal effect; the source files actives as falling curves though it sought activators and does not explain the sign; nearly all actives have a fitted effect of over 65% in size; many hits overshoot -100%
# Target sequence (P80244 whole entry, looked up): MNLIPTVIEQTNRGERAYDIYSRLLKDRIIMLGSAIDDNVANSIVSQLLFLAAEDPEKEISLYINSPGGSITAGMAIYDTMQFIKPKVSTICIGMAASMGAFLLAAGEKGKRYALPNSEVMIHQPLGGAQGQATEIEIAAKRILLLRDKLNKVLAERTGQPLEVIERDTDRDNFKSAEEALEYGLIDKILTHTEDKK
#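 Buffer: 100 mM Tris/HCl pH8, 100 mM KCl, 0.05% low protease BSA, 2.5% glycerol, 0.01% Tween-20. ClpP 10 microg/mL final; 20 min RT; delta FRET normalized to ADEP and DMSO controls.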
# Active calls of the source: *; ? = inconclusive; nt = no result given; [ ] = another dose, or the depositor's remark.
SMILES,D2 ag,Menin-MLL FL inh,PINK1 expr mod,gsp agonist,gsp antag,Sfp inh,ClpP mod
CCOc1ccc(-c2noc(CCC(=O)NC3CCCC3)n2)cc1OC,3.0,-2.9,2.7%,-2%[15.4 µM],9%,16%,-3.2%
CC(C)NC(=S)NN=C1CCCCCCCCCCC1,-2.2,-1.0,?,-2%[15.4 µM],2%,-10%,nt
COc1ccc(NC(=O)c2c3c(nc4ccccc24)CCN(Cc2ccccc2)C3)c(OC)c1,2.2,-1.7,1.5%,-1%,-13%,9%,-2.6%
CC(C)c1ccc(OCC(O)CN2CCN(c3ccccn3)CC2)cc1 (stereo unspecified),?,0.2,6.9%,-1%,-2%,-6%,-1.5%
Cc1nonc1CN(C)C(=O)CC1C(=O)NCCN1Cc1cccc(C(F)(F)F)c1 (stereo unspecified),-1.0,-7.9,0.9%,?,9%,-25%,nt
O=C(O)C1=CC[C@@H](c2ccc(Cl)cc2)N(S(=O)(=O)c2ccc(Cl)cc2)[C@H]1c1ccc(Br)cc1,-0.5,nt,0.1%,nt,-17%,nt,1.2%
CC(C)C(=O)N1CCC1(C)C(=O)Nc1ccc(-n2cncn2)cc1 (stereo unspecified),-1.9,nt,0.7%,nt,nt,nt,1.4%
COc1ccc(S(=O)(=O)N2CCC(C(=O)NCCC3=CCCCC3)CC2)cc1C,-0.8,0.2,6.1%[38.3 µM],-33%,-16%,1%,3.2%
COc1ccc(NS(=O)(=O)c2c(C)n(C)c(=O)n(C)c2=O)cc1,-3.7,4.8,1.0%,4%,4%,16%,0.0%
OC(CNCC#Cc1ccccc1)c1ccccc1 (stereo unspecified),0.9,1.9,1.3%,27%,5%,18%,1.9%
COc1ccc(C(=O)NC=C2C(=O)OC(C)(C)OC2=O)cc1,-2.0,10,-0.9%,16%[15.4 µM],nt,5%,nt
CCOc1ccc(C(=O)NCC(=O)NCC(c2ccco2)N2CCCCC2)cc1 (stereo unspecified),0.5,nt,-0.2%,8%,-6%,nt,1.2%
COc1ccccc1C(=O)OCC(=O)NC1CCCC1,-1.3,-5.8,1.0%,11%,4%,3%,nt
Cc1cc(N2CCOCC2)n2nc(C)c(-c3ccc(Cl)cc3)c2n1,-4.7,0.7,1.1%,21%,-1%,5%,3.7%
O=C(Nc1ccccc1)C1CCCCC1,-1.7,2.1,0.4%[38.3 µM],?,-3%,12%,0.3%
Nc1n[nH]c2cc(=O)n(-c3ccc(Cl)cc3)nc12,0.5,?,-0.1%,26%,-14%,9%,1.7%
CCN(CCn1cccn1)Cc1cn[nH]c1-c1cccc2ccccc12,0.8,4.8,-1.1%,22%,1%,2%,-1.9%
CC(C)(C)c1ccc(C(=O)N2CCC(C(=O)N3CCCCC3)CC2)cc1,-0.2,-0.1,0.6%,-19%[15.4 µM],2%,5%,nt
CC1(C(=O)NS(=O)(=O)c2ccccc2Cl)CCN1C(=O)CC1CC1 (stereo unspecified),-2.4,nt,1.2%,nt,nt,nt,1.2%
NS(=O)(=O)c1ccc(NC(=O)CN2CCN(S(=O)(=O)c3ccc(F)cc3)CC2)cc1,-0.2,nt,1.6%,13%,14%,13%,-0.5%
CC(C)(C)c1ccc(C(=O)c2c[nH]c(C(=O)NCCc3ccccn3)c2)cc1,-0.9,2.7,2.6%,-7%[15.4 µM],12%,4%,nt
CCn1c(-c2ccc(N(C)C)cc2)nc2ccccc21,2.4,3.2,-1.7%,-1%,-8%,9%,125%
CC(=O)c1ccc(OCc2cc(C(=O)NC(C)c3cnn(C)c3)no2)cc1 (stereo unspecified),-0.6,1.3,0.4%,-16%,-22%,10%,0.5%
O=C(Cc1c(F)cccc1Cl)NCC1CCCO1 (stereo unspecified),-1.8,-1.8,nt,-57%[inhibitor],4%,1%,-6.1%
NC1=C(c2ccc([N+](=O)[O-])cc2)C(=O)CO1,-2.9,3.7,-1.4%,0%[15.4 µM],-11%,-7%,nt
SMILES,D2 ag,Menin-MLL FL inh,PINK1 expr mod,gsp agonist,gsp antag,Sfp inh,ClpP mod
CCOCC(=O)NCc1ccc2c(c1)cc(C)n2C,-8.6,?,-0.4%,-4%,-1%,4%,-25%
CN1CCN(c2ccc(Cl)cc2NC(=O)c2cc(=O)[nH]c3ccccc23)CC1,1.1,nt,0.5%,6%,10%,nt,1.4%
O=C(C1CCC(=O)N(C2CC2)C1)N1CCC(Oc2cccc(C(F)(F)F)c2)CC1 (stereo unspecified),4.2,-2.6,-0.9%,-4%,3%,4%,-2.1%
COc1ccccc1-c1nnc(SCC(=O)Nc2ccc(N3CCOCC3)cc2)n1N,-1.7,nt,1.1%,6%[15.4 µM],-13%,nt,-1.5%
CN1CCN(C(=O)c2cc3c(ccc4ccccc43)oc2=O)CC1,-3.9,-0.2,-0.6%,6%,12%,-1%,13µM*
CN(C1CCCCC1)S(=O)(=O)c1ccc(S(=O)(=O)N2CCCC2)cc1,1.4,3.4,1.4%[38.3 µM],-68%[inhibitor],-23%,-2%,0.6%
CNC(=O)c1ccc(Nc2nnc(-c3ccc(C)c(S(=O)(=O)NCC4CCCO4)c3)c3ccccc23)cc1 (stereo unspecified),-3.3,3.1,10%,?,-20%,10%,-2.2%
CC(C)(C)c1ccc(C(=O)Nc2ccc(Oc3cccnc3)nc2)cc1,-2.3,-0.3,2.0%,-5%[15.4 µM],-12%,6%,-4.5%
CCOc1ccc2c(c1)sc1nc(C(=O)OC)cc(=O)n12,-1.4,nt,2.7%,5%,-2%,nt,-7.1%
N#Cc1c(N)nc2c(c1-c1ccc3c(c1)OCO3)CCc1ccccc1-2,-1.7,2.3,8.4%,1%,-10%,-9%,?
CC(=O)c1ccc(NC(=O)CSc2ccc3nnc(-c4cccnc4)n3n2)cc1,-2.3,-3.8,1.9%,?,16%,3%,-5.5%
NC(=O)COc1ccccc1C(=O)O,2.2,-0.3,-0.8%,19%[15.4 µM],-6%,11%,?
O=C(C1CCC1)N(CCc1ccccc1)Cc1nc2ccccc2c(=O)[nH]1,-4.2,-1.4,3.1%,13%,-7%,4%,0.2%
COc1cc2c(cc1OC)CN(c1ccc(F)cc1[N+](=O)[O-])CC2,2.3,-8.9,0.0%,-3%[15.4 µM],10%,25µM*,-0.8%
COc1ccc([C@@H]2CC=C(C(=O)O)[C@H](c3ccc(C)cc3)N2S(=O)(=O)c2ccc(C)cc2)cc1OC,0.2,nt,-0.7%,nt,-17%,nt,1.2%
O=C(Cn1cnc2c(cnn2-c2ccc(F)cc2)c1=O)OCc1ccccc1,-1.6,0.3,18%,-16%,12%,9%,-3.9%
O=S(=O)(c1ccccc1)N(CC1CO1)c1ccccc1 (stereo unspecified),-1.0,3.4,1.2%,9%[15.4 µM],-15%,14%,-0.2%
Cc1cc(OCC(=O)NCC2CCC(C(=O)O)CC2)c2c(C)cc(=O)oc2c1 (stereo unspecified),-1.9,0.9,0.5%,nt,2%,14%,4.5%
CN1CCCN(S(=O)(=O)c2ccccc2)CC1,-3.6,-2.3,-0.2%,-54%[inhibitor],5%,4%,nt
Clc1cnc2nc(SC/C=C/c3ccccc3)[nH]c2c1,-2.0,0.2,2.2%,13%,6%,8%,0.3%
CCCCCCCCNC(=S)NCCN1CCCCC1,-2.3,1.9,-3.4%,-39%[inhibitor],0%,-27%,-2.9%
Cn1cc([N+](=O)[O-])c(C(=O)Nc2nc(-c3ccc(Cl)cc3)cs2)n1,-2.6,-2.9,-3.8%,-3%,-3%,-5%,1.4%
COc1ccc(N2CCN(c3nc(Nc4ccc(C)c(F)c4)nc(N4CCCC4)n3)CC2)cc1,-5.4,0.7,3.5%,-27%[15.4 µM],6%,19%,0.5%
COc1ccc2nc(NC(=O)c3cnccn3)sc2c1,-0.5,2.3,3.4%[38.3 µM],-1%,-6%,3%,0.2%
CC1(C(=O)NS(=O)(=O)c2ccc(Cl)cc2)CCN1C(=O)CCc1ccc(Cl)cc1Cl (stereo unspecified),-2.9,nt,0.9%,nt,nt,nt,-2.1%
SMILES,D2 ag,Menin-MLL FL inh,PINK1 expr mod,gsp agonist,gsp antag,Sfp inh,ClpP mod
COc1ccc(-c2sc3ccc(N4CCOCC4)cc3c2C#Cc2ccsc2)cc1,2.8,nt,0.3%,?,12%,nt,-21%
Cc1ccc(/C=N/NC(=O)CNC(=O)c2ccc(S(=O)(=O)N(C)C)cc2)cc1,-1.3,-1.0,0.8%,34%[15.4 µM],-3%,10%,nt
O=C(COC(=O)c1ccc2ccccc2n1)Nc1ccccc1F,0.0,nt,1.4%,-2%,2%,nt,-13%
CN1C(=O)N(C)C2(c3ccccc3)NC(=O)NC12c1ccccc1 (stereo unspecified),3.7,0.7,-2.4%,23%,1%,-22%,-5.0%
O=C(Cn1nnc(-c2ccc(S(=O)(=O)N3CCCC3)cc2)n1)Nc1ccccc1-n1cccc1,0.0,2.4,9.9%[38.3 µM],14%,-3%,17%,-1.5%
O=C(Cn1ncc2c([nH]c3ccccc32)c1=O)NCCc1ccc(Cl)cc1,2.3,0.9,2.7%,-33%[inhibitor],5%,-10%,-9.5%
CCn1c2ccccc2c2cc(NC(=O)COC(=O)c3cc(OC)c(OC)cc3OC)ccc21,10,0.8,1.7%,8%[15.4 µM],-5%,?,?
Cc1cc(C)cc(NC(=O)N2CCCC2C(=O)NCc2ccco2)c1 (stereo unspecified),-1.1,0.6,-2.2%,10%[15.4 µM],4%,15%,-1.0%
Cc1ccc2oc(C(=O)N(Cc3ccncc3)CC3CCCO3)c(C)c2c1 (stereo unspecified),-2.1,nt,1.5%,-53%[inhibitor],-10%,6%,-1.8%
CC(=O)Nc1ccc(S(=O)(=O)Nc2nc3n(n2)C(c2ccccc2)CC(=O)N3)cc1 (stereo unspecified),0.5,7.5,0.8%,-36%,2%,13%,-3.2%
COc1cc(OC)nc(Oc2ccccc2C(=O)Oc2ccc(C)cc2)n1,-3.2,6.9,nt,14%,-14%,12%,-0.5%
